Hedgehog inh: blocks Sonic Hedgehog signaling. AID 2313. Shh-LIGHT2 Gli-luciferase reporter, 30 h. inhibition, % (concentration not given with the values). 22,000 compounds, 2.1% hits;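 active = replicate mean of 65% or more; inconclusive = mean lower but half the replicates past it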;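 also: pathway switched on by Shh-conditioned medium diluted 1 in 25 in low serum; 100 nL library stock added to about 40 µL; 0% = median of neutral wells and 100% = positive control level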
YB-1 expression: YB-1 expression inhibition; U2OS, qRT-PCR YB-1 vs CDIP delta delta Cp, 16 h; stronger effect = higher value; zero = DMSO, each unit about twofold; delta delta Cp (YB-1 minus CDIP) (no concentration beside the values); 30,000 compounds, 0.37% hits; AID 434959;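 active = delta delta Cp rounded down to an integer at or above 3, about 3 SD of DMSO wells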;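 also: higher means less YB-1 transcript or more CDIP transcript relative to DMSO; stock transfer was 100 nL into about 100 µL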
MITF inhib: blocks MITF activity; TRPM1 promoter luciferase, luminescence, 24 h; inhibition, % (no concentration beside the values); 37,000 compounds, 0.28% hits;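 active = most replicates at 85% or more, or half of them and the mean; inconclusive = half reach 85% but not the mean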;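 also: human melanocyte line stably carrying TRPM1 promoter luciferase reporter; 0% = vehicle wells and 100% = a positive control; the first replicate is given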
PD-1 reversal: activators reversing PD-1 mediated T-cell inhibition | AID 2316 | 29,000 tested, under 10 active | activation, % (no concentration beside the values) | primary human CD4 T cells, PD-L1 beads, CellTiter-Glo 96 h;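 active = replicate mean of 50% or more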;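 also: 0% = median vehicle wells and 100% = positive control; 100 nL library stock added to about 50 µL; numbers are from one replicate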
The depositor's hits bear a star; ? = inconclusive; nt = not tested or not shown. This is a subset; the hit share may differ from the screen's.

SMILES | Hedgehog inh | YB-1 expression | MITF inhib | PD-1 reversal
Cc1ccc(C)c(OCC(=O)Nc2cccc(Oc3ccc4c(c3)C(=O)NC4=O)c2)c1 | nt | nt | -15.5 | 0.3
C[C@H]1CN([C@@H](C)CO)C(=O)c2cccc(NC(=O)C3CCOCC3)c2O[C@@H]1CN(C)S(C)(=O)=O | -20.3 | -0.147 | -6.7 | 1.8
C[C@@H]1CCCCO[C@@H](CN(C)S(=O)(=O)c2ccc(Cl)cc2)[C@@H](C)CN([C@H](C)CO)C(=O)c2cc(NC(=O)CCCCCC(=O)Nc3ccccc3N)ccc2O1 | nt | -0.0709 | -13.9 | -1.3
Cc1nc(-c2ccccc2)sc1C(=O)C1C(=O)C(=O)N(CCCN2CCOCC2)C1c1ccco1 (stereo unspecified) | nt | nt | 4.0 | 0.5
C[C@@H]1CN([C@H](C)CO)C(=O)c2cc(NS(=O)(=O)c3cn(C)cn3)ccc2O[C@@H]1CN(C)S(=O)(=O)c1ccccc1 | nt | -0.463 | 0.6 | 0.7
Cc1ccc(S(=O)(=O)N(C)C[C@H]2Oc3ccc(NC(=O)Nc4ccccc4)cc3C(=O)N([C@@H](C)CO)C[C@H]2C)cc1 | 5.4 | -0.126 | 35.8 | 2.0
CNC[C@@H]1Oc2ccc(NC(=O)CCC(F)(F)F)cc2CC(=O)N([C@H](C)CO)C[C@H]1C | -40.5 | -0.0706 | -5.7 | nt
C[C@@H]1CN([C@H](C)CO)C(=O)c2cccc(NC(=O)c3cnccn3)c2O[C@@H]1CN(C)Cc1ccc2c(c1)OCO2 | -28.3 | 0.0305 | -14.6 | 2.2
COc1ccc(NC(=S)NCc2ccccn2)cc1OC | nt | nt | -15.8 | 1.9
CCOc1cc(/C=C(/C#N)C(N)=O)cc(CSc2ccccc2)c1O | 10.9 | -0.315 | -13.3 | 1.0
Cc1ccc(N(CC(N)=O)S(=O)(=O)c2ccc(Cl)cc2)cc1 | nt | nt | 6.1 | -0.4
COc1ccc(S(=O)(=O)N(C)C[C@@H]2Oc3ccc(NS(=O)(=O)c4ccccc4)cc3C(=O)N([C@@H](C)CO)C[C@H]2C)cc1 | -9.4 | 0.385 | -12.1 | 0.2
C[C@H]1CN([C@@H](C)CO)C(=O)c2cc(NC(=O)C3CCCCC3)ccc2O[C@H]1CN(C)S(=O)(=O)c1cn(C)cn1 | nt | -0.0642 | 1.4 | 0.3
Cc1ccc(S(=O)(=O)N(C)C[C@H]2Oc3ccc(NC(=O)Nc4ccc5c(c4)OCO5)cc3CC(=O)N([C@@H](C)CO)C[C@H]2C)cc1 | ? | 0.186 | 38.6 | -1.2
COc1ccc(S(=O)(=O)Nc2ccc3c(c2)C(=O)N([C@H](C)CO)C[C@H](C)[C@H](CN(C)Cc2ccncc2)O3)cc1 | nt | 0.0989 | 0.0 | 5.0
COc1ccc(CN(C)C[C@@H]2Oc3c(NS(=O)(=O)c4ccc(OC)cc4)cccc3C(=O)N([C@H](C)CO)C[C@@H]2C)cc1 | ? | 0.359 | -0.8 | 0.3
CNC[C@H]1Oc2c(NC(=O)C3CC3)cccc2C(=O)N([C@H](C)CO)C[C@@H]1C | -14.0 | -0.628 | -0.6 | 2.0
COc1ccc(CN(C)C[C@H]2Oc3c(NC(=O)NC(C)C)cccc3C(=O)N([C@H](C)CO)C[C@H]2C)cc1 | 16.8 | -0.341 | -1.2 | 0.0
C[C@@H]1CN([C@@H](C)CO)C(=O)c2cccc(NC(=O)Nc3ccc(F)cc3)c2O[C@@H]1CN(C)C(=O)Nc1ccc(F)cc1 | -20.4 | -0.179 | -4.8 | 0.9
COc1cc(O)cc2occ(-c3ccc(O)cc3)c(=O)c12 | -18.4 | 1.12 | -29.8 | 2.8
COc1ccc2nc(SCC(=O)Nc3ccc4c(c3)OCCO4)[nH]c2c1 | nt | nt | -38.3 | -0.8
COc1ccc(CN(C)C[C@@H]2Oc3c(NC(=O)c4ccc(-c5nccs5)cc4)cccc3C(=O)N([C@@H](C)CO)C[C@H]2C)cc1 | 36.7 | -0.0592 | 42.1 | nt
O=C(COc1ccc(Cl)cc1Cl)Nc1cc(C(=O)O)cc(C(=O)O)c1 | nt | nt | -13.1 | 0.7
C[C@H]1CN([C@@H](C)CO)C(=O)c2cc(NC(=O)Cn3cnnn3)ccc2O[C@@H]1CN(C)S(=O)(=O)c1ccccc1 | 6.2 | 0.358 | -3.8 | -0.1
COc1ccc(NC(=O)N(C)C[C@H]2Oc3ccc(NC(=O)Nc4c(C)noc4C)cc3C(=O)N([C@H](C)CO)C[C@@H]2C)cc1 | -16.4 | 0.0731 | -5.2 | 0.7
C[C@H](CO)N1C[C@H](C)[C@H](CN(C)CC2CC2)Oc2ccc(NC(=O)C3CCCCC3)cc2C1=O | 11.2 | -0.0404 | -7.4 | 0.0
C[C@@H]1CN([C@@H](C)CO)C(=O)c2cccc(NC(=O)C3CCCCC3)c2O[C@@H]1CN(C)Cc1ccc(Oc2ccccc2)cc1 | -66.8 | -0.247 | -0.4 | -3.4
C[C@@H]1CN([C@H](C)CO)C(=O)c2cccc(NC(=O)C3CC3)c2O[C@@H]1CN(C)C(=O)Nc1ccc2c(c1)OCO2 | 21.2 | 0.274 | 0.6 | 0.0
C[C@H](CO)N1C[C@H](C)[C@H](CN(C)CC2CCCCC2)Oc2c(NC(=O)NC3CCCCC3)cccc2C1=O | -22.9 | 2.29 | 8.1 | 0.9
CC(C)NC(=O)N(C)C[C@H]1OCCCC[C@@H](C)Oc2ccc(NC(=O)Nc3ccc4c(c3)OCO4)cc2C(=O)N([C@H](C)CO)C[C@@H]1C | nt | -0.271 | -5.7 | 0.1
C=C1C2CC[C@@]3(C)[C@H](c4ccoc4)OC(=O)C[C@]13O[C@H]1CC(=O)C(C)(C)[C@H](C(O)C(=O)OC)[C@@]21C (stereo partly specified) | 42.4 | 0.118 | 4.4 | nt
C[C@@H]1CN([C@@H](C)CO)C(=O)Cc2cc(NC(=O)Cc3cn(C)c4ccccc34)ccc2O[C@@H]1CN(C)S(=O)(=O)c1ccc(F)cc1 | -23.9 | 0.236 | 6.3 | -1.5
C[C@@H]1CN([C@H](C)CO)C(=O)Cc2cc(NC(=O)C3CC3)ccc2O[C@H]1CN(C)S(=O)(=O)c1ccc(F)cc1 | 5.3 | -0.0584 | -3.8 | -0.6
C[C@H](CO)N1C[C@H](C)[C@@H](CN(C)C(=O)NC2CCCCC2)Oc2c(NC(=O)Nc3ccc4c(c3)OCO4)cccc2C1=O | -72.8 | 0.132 | -41.5 | -1.7
Cc1cc(C(=O)Nc2cccc3c2O[C@@H](CN(C)CC2CC2)[C@@H](C)CN([C@@H](C)CO)C3=O)n(C)n1 | 9.4 | 0.253 | 0.0 | nt
C[C@@H]1CN([C@@H](C)CO)C(=O)c2cccc(NC(=O)Nc3ccccc3)c2O[C@@H]1CN(C)Cc1ccc(C(F)(F)F)cc1 | 29.1 | 1.19 | -7.1 | 2.5
O=C(COc1ccc([N+](=O)[O-])cc1)Nc1cccc(-c2nc3cc(Cl)ccc3o2)c1 | nt | nt | -14.9 | 3.2
Cc1ccc(S(=O)(=O)Nc2ccc3c(c2)C(=O)N([C@@H](C)CO)C[C@H](C)[C@H](CN(C)C(=O)Nc2ccc(C(F)(F)F)cc2)O3)cc1 | 3.3 | -0.29 | 28.1 | 0.8
Cc1cc(O)c(C=O)c2c1C(=O)Oc1c(C)c(O)c3c(c1O2)C(O)OC3=O (stereo unspecified) | -71.1 | 0.414 | 5.2 | nt
CC(C)NC(=O)N(C)C[C@H]1Oc2ccc(NC(=O)Nc3cccc4ccccc34)cc2CC(=O)N([C@H](C)CO)C[C@H]1C | -3.4 | -0.0279 | 2.0 | -0.9
CCCc1cc(=O)oc2cc(OC(=O)/C=C/c3cccs3)ccc12 | -36.5 | -0.0989 | -11.1 | -1.1
COc1ccc([N+](=O)[O-])cc1NC(=O)CN(c1ccc(C)cc1)S(C)(=O)=O | nt | nt | -14.9 | 0.4
C[C@@H]1CN([C@H](C)CO)C(=O)Cc2cc(NC(=O)Cc3cn(C)c4ccccc34)ccc2O[C@@H]1CN(C)Cc1ccccc1 | 23.2 | 0.128 | 24.5 | -2.9
Cc1cc(C(=O)Nc2cccc3c2O[C@@H](CN(C)Cc2ccc(C(=O)Nc4ccccc4N)cc2)[C@H](C)CN([C@@H](C)CO)C3=O)n(C)n1 | nt | -0.57 | 17.1 | -1.0
Cc1[nH]c2ccccc2c1C(=O)CSc1nc2sc(C)c(C)c2c(=O)n1-c1ccccc1 | nt | nt | 59.8 | -0.8
C[C@H]1CN([C@@H](C)CO)C(=O)c2cccc(NC(=O)C3CC3)c2O[C@H]1CN(C)C(=O)Nc1ccc2c(c1)OCO2 | 7.8 | 1.14 | -1.3 | 2.3
COc1ccccc1N(CC(=O)Nc1ccc(C(F)(F)F)cc1)S(C)(=O)=O | nt | nt | -12.4 | 0.1
C[C@@H]1CN([C@@H](C)CO)C(=O)c2cccc(NC(=O)c3cnccn3)c2O[C@H]1CN(C)S(C)(=O)=O | -30.7 | 0.207 | 6.4 | 2.0
C[C@H](CO)N1C[C@H](C)[C@@H](CN(C)C(=O)Nc2ccc(F)cc2)Oc2c(NC(=O)C3CCOCC3)cccc2C1=O | nt | -0.291 | 3.4 | -0.7
COc1ccc(-c2nnc(SCC(=O)Nc3cccc(C)c3C)o2)cc1 | nt | nt | -6.2 | 0.5
Cc1cc(-n2c(SCC(=O)Nc3ccccc3)nnc2-c2cccnc2)ccc1Cl | nt | nt | -2.2 | -2.7
O=C1c2c(O)cc(O)cc2O[C@@H](c2ccc(O)cc2)[C@H]1[C@@H]1C(=O)c2c(O)cc(O)cc2O[C@H]1c1ccc(O)cc1 | 72.1* | -0.592 | -5.4 | -17.9
Cc1ccc(S(=O)(=O)N(C)C[C@@H]2Oc3ccc(NS(=O)(=O)c4ccc(F)cc4)cc3C(=O)N([C@H](C)CO)C[C@@H]2C)cc1 | nt | 0.00327 | 1.6 | nt
Cc1ccc(S(=O)(=O)N(C)C[C@@H]2Oc3c(NC(=O)c4ccncc4)cccc3C(=O)N([C@H](C)CO)C[C@H]2C)cc1 | 19.3 | -0.356 | -2.1 | 2.2
C[C@@H]1CCCCO[C@H](CN(C)C(=O)Nc2ccc(F)cc2)[C@@H](C)CN([C@H](C)CO)C(=O)c2cc(NC(=O)c3ccncc3)ccc2O1 | -19.4 | -0.0237 | -12.6 | nt
COc1ccc(S(=O)(=O)Nc2ccc3c(c2)C(=O)N([C@H](C)CO)C[C@H](C)[C@H](CN(C)CC2CC2)O3)cc1 | -18.5 | 0.173 | -5.9 | 0.8
C[C@@H]1CN([C@@H](C)CO)C(=O)c2cc(NC(=O)CCCN(C)C)ccc2O[C@@H]1CN(C)S(=O)(=O)c1cccs1 | nt | 0.286 | -4.7 | 0.8
Cc1cc(=O)[nH]c(SCCOc2c(C)ccc(C)c2Cl)n1 | nt | nt | -12.3 | 1.9
NNC(=O)Cn1c2ccccc2c2ccccc21 | nt | 0.106 | 3.4 | -3.0
C[C@@H]1CN([C@H](C)CO)C(=O)Cc2cc(NC(=O)C3CCCCC3)ccc2O[C@H]1CN(C)Cc1ccc2c(c1)OCO2 | -11.4 | 0.212 | 6.9 | 1.1

Part of the list above, with each value named:
C[C@@H]1CN([C@@H](C)CO)C(=O)c2cc(NC(=O)CCCN(C)C)ccc2O[C@@H]1CN(C)S(=O)(=O)c1cccs1
  Hedgehog inh: nt; YB-1 expression: 0.286; MITF inhib: -4.7; PD-1 reversal: 0.8
Cc1cc(=O)[nH]c(SCCOc2c(C)ccc(C)c2Cl)n1
  Hedgehog inh: nt; YB-1 expression: nt; MITF inhib: -12.3; PD-1 reversal: 1.9
NNC(=O)Cn1c2ccccc2c2ccccc21
  Hedgehog inh: nt; YB-1 expression: 0.106; MITF inhib: 3.4; PD-1 reversal: -3.0

Remaining list, next part:
SMILES | Hedgehog inh | YB-1 expression | MITF inhib | PD-1 reversal
CNC[C@H]1Oc2c(NC(=O)Nc3ccccc3)cccc2C(=O)N([C@@H](C)CO)C[C@@H]1C | 46.2 | 0.109 | -7.6 | 2.0
Cc1noc(C)c1NC(=O)Nc1cccc2c1O[C@@H](CN(C)Cc1ccc(C(=O)Nc3ccccc3N)cc1)[C@@H](C)CN([C@@H](C)CO)C2=O | nt | -0.95 | -4.1 | 1.4
CCn1c2ccccc2n2c(SC(C)C(=O)O)nnc12 (stereo unspecified) | nt | nt | -6.2 | 0.7
Cc1noc(C)c1S(=O)(=O)Nc1cccc2c1O[C@@H](CN(C)S(=O)(=O)c1cccs1)[C@@H](C)CN([C@@H](C)CO)C2=O | 7.4 | -0.27 | -5.8 | 0.0
Cc1ccc(-c2noc(CCC(=O)Nc3ccccc3[N+](=O)[O-])n2)cc1 | nt | nt | 3.3 | 3.6
CN1CCN(C(=O)c2ccccc2N(Cc2ccccc2)S(C)(=O)=O)CC1 | nt | nt | -7.2 | 2.5
COc1ccc(NC(=O)Nc2cccc3c2O[C@@H](CN(C)C(=O)Nc2ccccc2)[C@H](C)CN([C@@H](C)CO)C3=O)cc1 | -17.5 | 0.107 | 2.0 | 1.4
COc1ccc(NC(=O)Nc2cccc3c2O[C@H](CN(C)C(=O)Nc2ccc(F)cc2)[C@@H](C)CN([C@@H](C)CO)C3=O)cc1 | 12.9 | -0.282 | -15.0 | 1.8

Compound activity from PubChem BioAssay.
